Source: PubChem
RE007 growth inh: less growth of the S. pombe RE007 Vpr strain; S. pombe RE007 Vpr strain, BacTiter-Glo ATP luminescence, 24 h; control for the full effect not named in the record; Potency, µM (highest dose often 92.2 µM), for the others: at the highest dose activity change, negative = less growth; 360,000 tested, 0.21% active; active = well fitted falling curve with a large enough effect; inconclusive = small, poorly fitted or top-dose-only effect; inactive = no such curve, though single readings can be large or run the other way;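 note: % is set by controls: 0 for no effect and ±100 for the full control effect; nearly all actives have a fitted effect of over 50% in size; the assay follows cell death caused by Vpr and the record does not say whether a fall means rescue or toxicity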
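Fission yeast RE007 carrying one integrated HIV-1 vpr copy, seeded at OD 0.01 in PMG+AL medium with 23 nL pinned compound. Grown 24 h at 30 degrees; viability read by BacTiter-Glo luminescence after 5 min.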
NS1 inh: inhibitors of influenza NS1 protein function; 270,000 tested, 0.4% active; S. cerevisiae slowed by influenza A NS1, growth recovery by OD600; Potency, µM (titrated, usually from 46.1 µM), inactives show at the highest dose activity, positive = more growth; active means well fitted rising curve with a large enough effect; inconclusive means small, poorly fitted or top-dose-only effect; inactive means no such curve, though single readings can be large or run the other way; note: nearly all actives have a fitted effect of over 50% in size
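Growth recovery, yeast-based: influenza A NS1 expressed in S. cerevisiae causes slow growth, and suppressors are detected by OD600. The parent strain without NS1 is used as positive control.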
Cruzain noTriton: blocks cruzain activity in detergent-free assay. Potency, µM, without a hit: max response, negative = inhibition, most hits filed as inhibitors. 200,000 tested, 2.3% active. AID 1476. purified cruzain, Z-FR-AMC fluorescence, no detergent;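 note: plate controls were enzyme without inhibitor for no effect and buffer without enzyme for full effect; nearly all actives have a fitted effect of over 40% in size; top concentration of the series not given in the record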
Target sequence (P25779 123-467 limits assumed): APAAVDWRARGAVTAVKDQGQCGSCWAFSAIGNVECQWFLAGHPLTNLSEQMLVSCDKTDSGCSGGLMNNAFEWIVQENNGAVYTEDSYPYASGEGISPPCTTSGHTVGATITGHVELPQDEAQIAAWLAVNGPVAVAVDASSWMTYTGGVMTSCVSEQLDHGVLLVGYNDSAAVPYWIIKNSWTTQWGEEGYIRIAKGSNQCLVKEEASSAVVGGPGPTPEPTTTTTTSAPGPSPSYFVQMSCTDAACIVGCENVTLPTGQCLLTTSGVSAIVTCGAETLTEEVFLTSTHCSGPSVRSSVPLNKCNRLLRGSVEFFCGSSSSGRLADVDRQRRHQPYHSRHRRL
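Detergent-free condition (0.00005% Triton X-100) in acetate buffer pH 5.5 with DTT. 1.5 nM enzyme and compound were pre-mixed 15 min, then 2 uM Z-FR-AMC substrate added; reaction progress from fluorescence change between first and third reads (60 s).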
Cruzain Triton: cruzain (T. cruzi) inhibition with detergent; Potency, µM, for inactives: max response, negative = inhibition, hits mostly inhibitors; P25779; 200,000 tested, 0.43% active; purified cruzain, Z-FR-AMC fluorescence, 0.01% Triton;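 note: plate controls were neutral wells for no effect and buffer without enzyme for full effect; nearly all actives have a fitted effect of over 40% in size; top concentration of the series not given in the record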
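Z-FR-AMC hydrolysis (2 uM substrate) by cruzain (1.5 nM) monitored kinetically at ex 360/em 450 nm after 15 min room-temperature compound exposure; 0.01% Triton X-100, pH 5.5, 5 mM DTT.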
Lassa entry inh: Lassa virus entry inhibition; Lassa virus pseudotype entry inhibition, cell reporter; control for the full effect not named in the record; Potency, µM (series often up to 37.9 µM), for inactives: at the highest dose activity change, negative = inhibition, usual class: inhibitors; 300,000 tested, 1.2% active; AID 540256; active means well fitted inhibition curve with a large enough effect; inconclusive means small, poorly fitted or top-dose-only effect, or effect the other way; inactive means flat fitted curve, though single readings scatter; tested in HEK293 cells; note: % is set by controls: 0 for no effect and ±100 for the full control effect; nearly all actives have a fitted effect of over 50% in size; luciferase read-out
SARS PLpro yeast: inhibitors of SARS-CoV papain-like protease in yeast | S. cerevisiae expressing SARS-CoV PLpro, growth rescue; control for the full effect not named in the record | 330,000 tested, 0.19% active | Potency, µM (highest dose often 32.9 µM), without a hit: at the highest dose activity, positive = growth rescue; active means well fitted rising curve with a large enough effect; inconclusive means small, poorly fitted or top-dose-only effect; inactive means no such curve, though single readings can be large or run the other way; note: 0% is about no effect; nearly all actives have a fitted effect of over 55% in size; growth read by luminescence after 48 h
MARV entry inh: blocks Marburg virus binding to or entry into cells; Marburg virus pseudotyped entry inhibition, cell reporter; control for the full effect not named in the record; about a third of the inactives were read at about 46 µM; Potency, µM (top dose mostly 37.8 µM), for inactives: at the highest dose activity change, negative = inhibition, usual class: inhibitors; 300,000 tested, 1.8% active; active = well fitted inhibition curve with a large enough effect; inconclusive = small, poorly fitted or top-dose-only effect, or effect the other way; inactive = flat fitted curve, though single readings scatter; tested in HEK293 cells; about a fifth of its hits are not listed in these tables; note: % is set by controls: 0 for no effect and ±100 for the full control effect; luciferase read-out
2A StopGo: lowers the luciferase signal of an FMDV 2A StopGo reporter | 410,000 tested, 1.2% active | human cells with a luciferase reporter of 2A StopGo recoding; control for the full effect not named in the record | Potency, µM (series often up to 57.9 µM), without a hit: top-dose signal change, negative = less light; active = well fitted falling curve with a large enough effect; inconclusive = small, poorly fitted or top-dose-only effect; inactive = no such curve, though single readings can be large or run the other way; tested in HEK293T cells; note: % is set by controls: 0 for no effect and ±100 for the full control effect; nearly all actives have a fitted effect of over 45% in size; luciferase light after 4 h
Numbers without * were called inactive; ? = inconclusive; · = not tested or not shown; & = joins results of further samples; [ ] = another dose, or the depositor's remark. Unless noted, calls come from the whole dose curve; as a rule, active = well fitted curve in the direction sought with a large enough effect; inconclusive = small, poorly fitted or top-dose-only effect, or another doubt; inactive = no such curve, though single readings can be large; an effect the other way counts as inactive or inconclusive. Potency is the fitted concentration of half-maximal effect.

Second line of a record – RE007 growth inh	NS1 inh	Cruzain noTriton	Cruzain Triton	Lassa entry inh	SARS PLpro yeast	MARV entry inh	2A StopGo
1. Cc1c(N2CCCC2)cc2c(c1NC(=O)c1ccccc1Cl)C(C)(C)CC2(C)C
→ ·	-9%&-2%	-20%	-1.9%	·	-4%	·	-11%
2. COc1ccc(-c2nc(C)c(C(C)=O)n2O)cc1[N+](=O)[O-]
→ -30%	·	·	·	·	-10%	3%[46.1 µM]	4%
3. COCC(C)n1c(SCc2cc(C(=O)OC)c(C)o2)nc2ccccc2c1=O (centres undefined)
→ 10%	-67%	·	·	?	-8%	?	?
4. COC(=O)c1ccc(CSc2nnc(-c3ccncc3)o2)o1
→ 6%	-10%	4%	3.8%	2%	-1%	11%&4%	-2%
5. CCN1CCN(C(=O)CN2C(=O)COc3ccc(S(=O)(=O)N4CCOCC4)cc32)CC1
→ -8%	-1%	·	·	·	-1%	·	-15%
6. O=C(Cc1ccccc1Cl)N1CCOCC1
→ 1%	-3%	·	·	3%[46.1 µM]	0%	?	-2%
7. COc1ccc(-c2csc3ncnc(Oc4cccc5ccc(C)nc45)c23)cc1
→ -13%	10%	2%	-3.3%	-22%	-8%	?	0%
8. Cc1nc(SCC(=O)c2c[nH]c3ccccc23)n[nH]1
→ -3%	8%	-9%	6.2%	?	6%	26%[46.1 µM]	36%[activator]
9. Cc1nn(Cc2ccccc2)c(Cl)c1C(=O)O
→ -13%	·	·	·	-14%[46.1 µM]	2%	20%[46.1 µM]	-6%
10. COCCN(Cc1ccco1)C(=O)c1cc2c(Cl)nc3ccc(C)cc3c2s1
→ ·	·	10%	0.9%	15%[46.1 µM]	·	-5%[46.1 µM]	-10%
11. O=C(COC(=O)/C=C/c1ccc(C(F)(F)F)cc1)NCC1CCCCC1
→ -17%	·	·	·	-16%	-1%	22%	-13%
12. COc1ccccc1C(=O)N1CCN=C1c1ccccc1
→ 12%	-9%	4%	-2.6%	-12%	6%	?	-7%
13. COc1ccc(/C=N/Nc2c(Cl)cc(Cl)cc2Cl)cc1CN1CCOCC1
→ -3%	16%	-5%	-4.3%	4%	-10%	?	-19%
14. COc1ccc(N2CCN(S(=O)(=O)CCNC(=O)COc3ccccc3OC)CC2)cc1
→ -6%	-2%	·	·	3%[46.1 µM]	-2%	0%[46.1 µM]	-21%
15. CC(CC(=O)O)CC(=O)Nc1cc([N+](=O)[O-])ccc1O (centres undefined)
→ -12%	·	·	·	0%[46.1 µM]	0%	-3%[46.1 µM]	-7%
16. CC(=O)OC1(C(C)=O)CCC2C3CC4OC45CC(O)CCC5(C)C3CCC21C (centres undefined)
→ 1%	·	·	·	20%[46.1 µM]	·	?	-23%
17. COc1cc(C(=O)N2CCN(Cc3ccc4c(c3)OCO4)CC2)cc(OC)c1OC
→ 4%	24%	·	·	0%	8%	21%	-2%
18. Cc1cc([N+](=O)[O-])nn1CCCC(=O)Nc1ccc(Cl)cc1Cl
→ -8%	·	·	·	?	-5%	?	-15%
19. CCOC(=O)C1=C(c2ccccc2)N(C)C(=O)NC1c1ccc(O)c(OC)c1 (centres undefined)
→ 0%	-10%	2%	5.3%	11%	2%	-2%	·
20. CCn1c(SCc2nc(CC(=O)Nc3ccccc3OC)no2)nnc1-c1cccs1
→ 2%	1%	9%	13%	4%	-6%	2%	-1%

From no. 1 as far as 10, copied from above:
Second line of a record – RE007 growth inh	NS1 inh	Cruzain noTriton	Cruzain Triton	Lassa entry inh	SARS PLpro yeast	MARV entry inh	2A StopGo
1. Cc1c(N2CCCC2)cc2c(c1NC(=O)c1ccccc1Cl)C(C)(C)CC2(C)C
→ ·	-9%&-2%	-20%	-1.9%	·	-4%	·	-11%
2. COc1ccc(-c2nc(C)c(C(C)=O)n2O)cc1[N+](=O)[O-]
→ -30%	·	·	·	·	-10%	3%[46.1 µM]	4%
3. COCC(C)n1c(SCc2cc(C(=O)OC)c(C)o2)nc2ccccc2c1=O (centres undefined)
→ 10%	-67%	·	·	?	-8%	?	?
4. COC(=O)c1ccc(CSc2nnc(-c3ccncc3)o2)o1
→ 6%	-10%	4%	3.8%	2%	-1%	11%&4%	-2%
5. CCN1CCN(C(=O)CN2C(=O)COc3ccc(S(=O)(=O)N4CCOCC4)cc32)CC1
→ -8%	-1%	·	·	·	-1%	·	-15%
6. O=C(Cc1ccccc1Cl)N1CCOCC1
→ 1%	-3%	·	·	3%[46.1 µM]	0%	?	-2%
7. COc1ccc(-c2csc3ncnc(Oc4cccc5ccc(C)nc45)c23)cc1
→ -13%	10%	2%	-3.3%	-22%	-8%	?	0%
8. Cc1nc(SCC(=O)c2c[nH]c3ccccc23)n[nH]1
→ -3%	8%	-9%	6.2%	?	6%	26%[46.1 µM]	36%[activator]
9. Cc1nn(Cc2ccccc2)c(Cl)c1C(=O)O
→ -13%	·	·	·	-14%[46.1 µM]	2%	20%[46.1 µM]	-6%
10. COCCN(Cc1ccco1)C(=O)c1cc2c(Cl)nc3ccc(C)cc3c2s1
→ ·	·	10%	0.9%	15%[46.1 µM]	·	-5%[46.1 µM]	-10%

Further entries follow.
Second line of a record – RE007 growth inh	NS1 inh	Cruzain noTriton	Cruzain Triton	Lassa entry inh	SARS PLpro yeast	MARV entry inh	2A StopGo
21. CCc1ccc(Nc2c([N+](=O)[O-])c(=O)oc3ccccc23)cc1
→ 12%	-47%	·	·	?	-1%	?	26%
22. CC(C)(C)C1CCc2c(sc(NC(=O)CCC(=O)O)c2C(=O)Nc2ccccc2C(F)(F)F)C1 (centres undefined)
→ ·	·	?	?	-6%[46.1 µM]	·	?	6%
23. N#C/C(=N\Nc1ccc(Cl)cc1)C(=N)N1CCCCC1
→ -5%	-34%	0%	-7.7%	?	-2%	?	-33%
24. O=C(O)c1ccc2c(c1)CC(c1ccccc1)OC2=O (centres undefined)
→ -13%	4%	4%	2.6%	?	8%	14%	36%[activator]
25. O=C1NC(=O)N(c2ccc3c(c2)OCO3)C(=O)/C1=C/c1ccc(N2CCCC2)o1
→ 4%	13%	-12%	-21%	-4%	-21%	7%	-4%
26. CN1CCC2(CC1)NC(=O)c1ccccc1N2
→ 19%	0%	·	·	·	0%	·	-14%
27. COc1cccc(NC(=O)Cn2c(=O)n(-c3cc(OC)c(OC)c(OC)c3)c(=O)c3ccccc32)c1
→ 5%	·	·	·	2%[46.1 µM]	0%	-3%[46.1 µM]	-21%
28. CNc1nc2c3ccccc3n(C(C)=O)c2s1
→ -20%	-135%	-8%	-0.4%	10%	-23%	18%[46.1 µM]	-10%
29. Cc1ccc2[nH]ccc(=O)c2c1
→ -1%	2%	-4%	-5.1%	-23%	0%	-26%	-11%
30. Cc1cc2nnc(SCC(=O)NCc3cccs3)n2c2ccccc12
→ 16%[3.69 µM]	-7%	-12%	-3.5%	0%	·	?	28%
31. Cc1c(C(=O)Nc2ccc(F)cc2)oc2ccc(S(=O)(=O)N3CCCCCC3)cc12
→ ·	·	32µM*	-0.4%	-7%[46.1 µM]	·	·	28µM*
32. COc1ccccc1N1CCN(C2CCCN(Cc3cccc(O)c3)C2)CC1 (centres undefined)
→ -3%	-9%	·	·	·	-8%	·	-13%
33. Cc1ccccc1-c1nc(CS(=O)(=O)CC(=O)NCCCN2CC(C)CC(C)C2)c(C)o1 (centres undefined)
→ -4%	-6%	·	·	·	-3%	·	-4%
34. COc1cc2c(cc1OC)CN(C(=O)CSc1nc(N)c(C#N)cc1C#N)CC2
→ -21%	-20%	?	-15%	0%	0%	-2%	0%
35. CCOCCCn1cnc2c3cc(F)ccc3n(C)c2c1=O
→ -6%	0%	·	·	·	-1%	·	23%
36. COC(=O)CCC(=O)N1CCOCCOCCOCC1
→ -2%	2%	·	·	0%	1%	-21%[46.1 µM]	-9%
37. COC(=O)C1Cc2ccccc2CN1C(=O)CCl (centres undefined)
→ 0%	·	·	·	?	2%	7.1µM*	22µM*
38. CC(C)(C)OCC(O)CN1CCN(C(=O)c2ccccc2)CC1 (centres undefined)
→ 17%	·	·	·	8%	0%	16%	-15%
39. COc1ccc(-c2nc(C)c(CCNC(=O)C(=O)Nc3ccccc3C#N)s2)cc1OC
→ ·	·	-9%	-0.7%	17%[46.1 µM]	·	·	-10%
40. Cc1ccc(CNC(=O)CCOc2ccc(C(C)(C)C)cc2)cc1
→ 2%	1%	-6%	-1.5%	28%	-12%	6%	22%
41. COc1cc2c(cc1OC)C(CSc1ccccc1C(=O)O)=NC(C)(C)C2
→ -14%	3%	·	·	7%	-1%	5%[46.1 µM]	-3%
42. CCN1C(=O)[C@H]2[C@@H](c3ccc(C)cc3)N3C(=O)N(c4ccc(OC)cc4)C(=O)[C@@]3(C)[C@H]2C1=O
→ -4%	7%	·	·	·	7%	·	-2%
43. CCc1c(C)nc(N)n2c(SCC(=O)N3CCN(c4ccccc4OC)CC3)nnc12
→ ·	-1%	8%	-1.9%	·	-3%	7%	·
44. COc1ccccc1CNCCSc1nnnn1C
→ ·	·	3%	0.3%	16%[46.1 µM]	·	-2%[46.1 µM]	2%
45. COC(=O)c1c(C)[nH]c(C(=O)OC(C)C(=O)N2CCOCC2)c1C (centres undefined)
→ -12%	·	·	·	1%	-2%	29%	29%
46. NP(=O)(OCC(F)(F)F)Oc1ccc(Cl)cc1 (centres undefined)
→ -6%	19%	2%	2.6%	9%	?	4%	-2%
47. CC1=[N+]([O-])C(N2CCOCC2)C(O)(c2ccccc2)C1 (centres undefined)
→ -8%	-4%	-5%	0.1%	4%	1%	-3%	-18%
48. CC(C)NS(=O)(=O)c1ccc(OCC(=O)Nc2ccc3c(c2)OCCO3)cc1
→ 11%	-3%	5%	3.6%	-5%	1%	2%	·
49. CCCCNS(=O)(=O)c1ccc(S(=O)(=O)n2cnc3ccccc32)cc1
→ 11%	4%	6%	-1.7%	-2%	10%	0%	·
